HSD17B inhib – qHTS Assay for Inhibitors of HSD17B4, hydroxysteroid (17-beta) dehydrogenase 4; recombinant HSD17B10, NADH fluorescence kinetic; many of its hits are not listed in these tables; 3-hydroxyacyl-CoA dehydrogenase type-2 (Homo sapiens), Q99714; Potency, µM (highest dose often 57.1 µM), inactives show at the top dose activity change, negative = inhibition, most hits filed as inhibitors; 7.6% of 75,000 active; AID 893, 2007; active = well fitted inhibition curve with a large enough effect; inconclusive = small, poorly fitted or top-dose-only effect; inactive = no such curve, though single readings can be large or run the other way;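 note: the protocol describes HADH2 (HSD17B10) and not the HSD17B4 of the title; nearly all actives have a fitted effect of over 70% in size; most hits overshoot -100% by far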
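Activity followed as NADH fluorescence increase (ex 360, em 450 nm) every 30 seconds for 4 min, using final 90 uM beta-hydroxybutyryl CoA and 1 mM NAD+. Recombinant His-tagged enzyme, 20 nM, pH 9.0 Tris buffer, 15 min compound preincubation.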
Starred values were filed as active, the others as inactive; ? = inconclusive; & = joins results of further samples; [ ] = remark or other dose. % is set by controls: 0 for no effect and ±100 for the full control effect; potency is the fitted concentration of half-maximal effect. This is a subset. The share of hits here may be higher or lower than overall.

SMILES	HSD17B inhib
CCOc1ccc(-n2c(CC)nc3ccccc3c2=O)cc1	-2%
COC(=O)N1CCN(C(=O)Cc2ccc(Cl)c(Cl)c2)[C@H](CN2CCCC2)C1	-11%&2%
Cc1cc(OCC(=O)Nc2c(C)n(C)n(-c3ccccc3)c2=O)c2c3c(c(=O)oc2c1)CCC3	-24%
N#Cc1ccccc1Cn1cc(C(=O)c2ccco2)c2ccccc21	?
c1ccc(CCN2CCC(N3CCN(c4ccccc4)CC3)CC2)cc1	-2%
CC(C)[N+](C)(CCC(C(N)=O)(c1ccccc1)c1ccccc1)C(C)C	1%
COc1ccc2c(c1O)-c1c(OC)c(OC)cc3c1[C@@H](C2)N(C)CC3	-18%
C[C@@H]1CC[C@@H]2N(C1)C[C@H]1[C@@](O)([C@H](O)C[C@]3(O)[C@H]4CC[C@H]5[C@]6(O)O[C@]4(C[C@]13O)[C@@]5(C)CC[C@@H]6O)[C@@]2(C)O	17%[11.4 µM]
CN1CCC2(CC1)NC(=O)C1=C(CN(C)CC1)N2	1%
CC(C)N1C(=O)c2ccccc2NS1(=O)=O	-27%
Fc1ccc2c(c1)nnn2C1CCN(Cc2nnnn2CCc2ccccc2)CC1	-3%
CC(C)NC(=O)N1CC[C@@]2(CCCNC2)C1	0%
CN(C)c1nc(OCCNC(=O)COc2ccc(Cl)cc2Cl)nc(N2CCCCC2)n1	5%
O=[As](O)(O)c1ccc(N=Nc2ccc(O)cc2)cc1	-5%[11.4 µM]
O=C(Nc1cccc(F)c1)N1CC2(CCNCC2)C1	-9%
CN(C)C(=O)Nc1cccc(C(F)(F)F)c1	-3%
Cc1ccc(S(=O)(=O)N2CCCC(C(=O)N3CCC4(CC3)OCCO4)C2)cc1 (stereo unspecified)	3%
Cc1c2cnn(CC(=O)N3CCC4(CC3)OCCO4)c(=O)c2c(C)n1Cc1ccc(F)cc1	-2%
CC1=C2[C@@H]3OC(=O)[C@@H](C)[C@@H]3CC[C@]2(C)C=CC1=O	2%[25.6 µM]
CCCCCCOc1ccc(CN2CCN(CCO)CC2)cc1	0%
COc1ccc(C(=O)c2c(C)n(CCN3CCOCC3)c3cc(I)ccc23)cc1	-1%
COc1ccc2[nH]cc(CCN)c2c1	-8%&-5%
CC12CN3CC(C)(CN(C1)C3c1ccncc1)C2=O (stereo unspecified)	1%
Cc1ccccc1N	6%&-2%
CCN(CC)C(=O)c1ccc(NC(=O)Cn2nc(C)c3ccccc3c2=O)cc1	11%
CC(C)C(=O)CP(=O)(O)O	9%[11.4 µM]
CCNC(=O)[C@@H]1O[C@@H](n2cnc3c(N)ncnc32)[C@@H](O)[C@H]1O	-2%
Cc1ccc2nc(N3CCC(C(=O)N4CCC5(CC4)OCCO5)CC3)sc2c1	4%
CCn1c(O)c(C=NCCc2c[nH]c3ccccc23)c(=O)[nH]c1=O	-4%
CCOC(=O)C1CCCCC12C(C#N)=C(N)Oc1n[nH]c(C)c12 (stereo unspecified)	11%
O=C(O)C1Sc2[nH]c(=O)sc2C2c3cc(Cl)ccc3OC(=O)C12 (stereo unspecified)	20µM*
CC1=[N+]([O-])C2(N)CCc3nonc3C2(O)C1 (stereo unspecified)	-2%
c1ccc2c(c1)sc1ccccc12	-4%
C(=C/c1ccccc1)/CN1CCN(CCOC(c2ccccc2)c2ccccc2)CC1	-19%
Nc1nc(N)c(Cn2ccnc2)c(=O)[nH]1	-4%[11.4 µM]
O=C1C2CCN(CC2)C1(CO)CO	4%[11.4 µM]
CCC1/C=C/C=CCC(C)C(O)[C@@](C)(O)C(=O)C(C)C(O)C(C)C(=O)C(C)C(O)C(C)C=CC(=O)O[C@H]2C(C)C(CC1)O[C@]1(CCC(C)C(CC(C)O)O1)C2C (stereo partly specified)	-1%
O=C(c1cc2cc3ccc(Cl)cc3nc2o1)N1CCC2(CC1)OCCO2	-16%
COc1cc2c(cc1OC)[C@@]13CCN4CC5=CCOC6CC(=O)N2C1[C@H]6[C@@H]5C[C@@H]43 (stereo partly specified)	-2%
O=C(Oc1ccc([N+](=O)[O-])cc1)N1CCC(N2CCCCC2)CC1	4%
CN1CCCC2(CCN(C(=O)c3csnn3)CC2)C1	1%
Cc1sc2c(c1C)C(c1cccs1)=NCC(=O)N2CC(=O)NCc1cccs1	2%
CN1C(=O)CCS(=O)(=O)[C@@H]1c1ccc(Cl)cc1	-7%[25.6 µM]
C=CCOC(C)=O	3%
COCCOC(=O)c1c(C)oc2ccc(OC(=O)N(C)C)cc12	18%
CC(=O)N1CN2CN(C(C)=O)CC(C(=O)c3ccccc3)(C2)C1	1%
CC(=O)O[C@H]1CC[C@@]2(C)C(=CC[C@@H]3[C@H]2CC[C@]2(C)C(=O)CC[C@H]32)C1	-2%[25.6 µM]
CCCCn1c(O)c(C(CC)=Nc2ccc(C(=O)O)cc2)c(=O)[nH]c1=O	0%
NC(=NCc1ccc(Cl)cc1)SCCCc1cnc[nH]1	-9%
COc1ccc(-n2nc(C(F)(F)F)cc2-c2ccc(Cl)cc2)cc1	-7%
O=c1c2ccccc2nc(-c2ccccc2)n1-n1cccc1	2%
CC(=O)c1c(O)n(C2CCCCCC2)c(=O)[nH]c1=O	-5%
CC(=O)N(C1=NCCCS1)c1ccccc1F	4%
Cn1c(=O)cc(SCC(=O)N2CCC3(CC2)OCCO3)c2ccc(Cl)cc21	-16%
O=C(O)CNCP(=O)(O)O	8%[11.4 µM]
O=[N+]([O-])c1ccc2c3c(cccc13)CC2	-17%
C[C@@]12CC[C@H]3[C@@H](CC[C@@H]4C[C@H](O)CC[C@]43C)[C@H]1CC[C@H]2O	81%[activator]
O=C(O)C(Cl)Cl	-8%
COc1ccccc1OCCCn1cc(C(=O)c2ccco2)c2ccccc21	?
Ic1cncc(OC[C@@H]2CCN2)c1	-10%

Entries shown so far that contain an NH in an aromatic ring:
SMILES	HSD17B inhib
COc1ccc2[nH]cc(CCN)c2c1	-8%&-5%
CCn1c(O)c(C=NCCc2c[nH]c3ccccc23)c(=O)[nH]c1=O	-4%
CCOC(=O)C1CCCCC12C(C#N)=C(N)Oc1n[nH]c(C)c12 (stereo unspecified)	11%
O=C(O)C1Sc2[nH]c(=O)sc2C2c3cc(Cl)ccc3OC(=O)C12 (stereo unspecified)	20µM*
Nc1nc(N)c(Cn2ccnc2)c(=O)[nH]1	-4%[11.4 µM]
CCCCn1c(O)c(C(CC)=Nc2ccc(C(=O)O)cc2)c(=O)[nH]c1=O	0%
NC(=NCc1ccc(Cl)cc1)SCCCc1cnc[nH]1	-9%
CC(=O)c1c(O)n(C2CCCCCC2)c(=O)[nH]c1=O	-5%

(further entries)
SMILES	HSD17B inhib
Cc1ccc(C)c(CN2CCC(n3nnc4cc(F)ccc43)CC2)c1	-7%
O=C(CCN1CC2CCC(CC2)C1)c1cccs1	-11%[11.4 µM]
O=C(O)CC[N+](=O)[O-]	-1%&-2%
O=[As](O)(O)c1ccc2nc3cc([As](=O)(O)O)ccc3nc2c1	2%[11.4 µM]
Cc1cccc(N)c1C	-6%
O=C(O)C(O)(c1ccccc1)C1CCCC1 (stereo unspecified)	1%
CC(Cc1ccccc1)[n+]1cc(/N=C(\N)[O-])on1 (stereo unspecified)	-16%
CC(=O)N1CC(=O)Nc2ccc(Cl)cc2C1c1ccc(F)cc1 (stereo unspecified)	3%
NC(=O)c1cc([N+](=O)[O-])cc([N+](=O)[O-])c1	1%
CN(C)CCCNc1c2c(nc3ccc(Cl)cc13)CCCC2	1%[11.4 µM]
Cc1cc(NC(=O)COC(=O)c2c(C)nn(Cc3ccccc3)c2Cl)no1	16%
Cc1ccc(N2C(=O)CC(=O)NC2=O)cc1	-10%

Another view of some results above.
| SMILES | HSD17B inhib |
| --- | --- |
| CN(C)CCCNc1c2c(nc3ccc(Cl)cc13)CCCC2 | 1%[11.4 µM] |
| NC(=O)c1cc([N+](=O)[O-])cc([N+](=O)[O-])c1 | 1% |
| O=C(O)CC[N+](=O)[O-] | -1%&-2% |

(further entries)
SMILES	HSD17B inhib
c1ccc2c(CN3CCN(C4CCCCC4)CC3)c[nH]c2c1	-3%
O=C(O)C1CSC(c2cccnc2)N1 (stereo unspecified)	3%
Cn1c(O)c(C=Nc2ccc(Cl)cc2)c(=O)n(C)c1=O	?
c1ccc2c(CN3CCCCCCC3)c[nH]c2c1	6%
CC1(C)N([O-])[N+](=O)C1(C)Br (stereo unspecified)	?
OC1CCCCC1N1CCC(c2ccccc2)CC1 (stereo unspecified)	5%
O=C1NC(=O)[C@]2(Cc3ccccc3N3CCN(c4ccccc4)CC32)C(=O)N1Cc1ccccc1 (stereo partly specified)	?
CCOc1cc(-c2ccc(N)c(OCC)c2)ccc1N	25µM*
CC(=O)OC1C2CCC3C1(CC(O)[C@@]1(O)[C@@H](CC(O)C1(C)C)[C@]3(C)O)C[C@@]2(C)O (stereo partly specified)	1%
CNCC/C=C\c1cccnc1	-1%
CCCCCCCCOC(=O)c1ccccc1C(=O)OCCCCCCCC	3%
COC(=O)[C@@H](N)CCCN=C(N)N[N+](=O)[O-]	-4%
CN(C)CP(=O)(Nc1ccccc1)N(C)C (stereo unspecified)	9%
CCCNS(=O)(=O)c1ccc(OCC(=O)N2CCN(Cc3ccc4c(c3)OCO4)CC2)cc1	-1%
COC(=O)C(O)(c1ccc2c(c1)CCCN2)C(F)(F)F (stereo unspecified)	2%
O=C1Nc2ccccc2C2(CCN(CCc3ccc(C(F)(F)F)cc3)CC2)O1	-10%
N[C@H](Cc1o[nH]c(=O)c1Cl)C(=O)O	-9%
C/C=C1/C[C@@H](C)[C@](O)(CO)C(=O)OCC2=CCN3CC[C@@H](OC1=O)C23 (stereo partly specified)	19%
Cc1nn(-c2ccccc2)c2c1C(c1ccc3c(c1)OCO3)SCC(=O)N2 (stereo unspecified)	-10%
O=[N+]([O-])c1cc(Cl)c(Cl)cc1Cl	1%
O=P1(Nc2ccc(F)cc2)COc2ccccc2OC1	9%
Cc1ccc2nsnc2c1-n1c(C)nc2ccccc2c1=O	4%
Cc1ccc(C[N+](C)(C)C)o1	-5%&-9%
C=CCn1c(O)c(C(CC)=Nc2ccccc2NC(C)=O)c(=O)[nH]c1=O	18%
O=C(Nc1cccc(OC(=O)N2CCCCC2)c1)N1CCCCC1	5%
CC[C@@H]1[C@@H]2Cc3ccc(O)cc3[C@@]1(CC)CCN2C	8%[11.4 µM]
CCCC(=O)C1C(=O)NC(=O)NC1=O	?
COc1cccc(CNC2CN3CCC2CC3)c1OC (stereo unspecified)	6%
CCN1C[C@@]2(COC)C3[C@@H](OC)C4[C@@H]1[C@@]3(C1C[C@@]3(O)[C@H](OC(=O)c5ccccc5)C1[C@]4(OC(C)=O)[C@@H](O)[C@@H]3OC)[C@@H](OC)C[C@H]2O (stereo partly specified)	6%
COc1ccc(CC2NC[C@H](O)[C@H]2OC(C)=O)cc1 (stereo partly specified)	3%
NC(N)=NCCN=C(N)N	-3%[11.4 µM]
CC(C)(C)C(=O)C(Oc1ccc(Cl)cc1)n1cncn1 (stereo unspecified)	3%
CC(C)NS(=O)(=O)c1ccc(OCC(=O)N2CCN(Cc3ccccc3)CC2)cc1	-2%
CNc1ccc(C(=O)CC(O)CCC(C)C2OC(=O)CC(O)CC(=O)CC(O)CC(O)CC(O)CC(O)CC3(O)CC(O)C(C(=O)OC)C(CC(O[C@@H]4OC(C)C(O)C(N)C4O)/C=C/C=C/C=C/C=C/C=C/C=C/C=C/C2C)O3)cc1 (stereo partly specified)	2%
CC(C)[C@@]1(NC(=O)[C@@H]2C[C@H]3c4cccc5[nH]cc(c45)C[C@@H]3N(C)C2)O[C@@]2(O)[C@H]3CCCN3C(=O)[C@H](Cc3ccccc3)N2C1=O	-15%&4%
CN1Cc2c(ccc3c2OCO3)C2C(O)Cc3cc4c(cc3C21)OCO4 (stereo unspecified)	-3%&3%

Screening results as filed in PubChem BioAssay.
